GLA inh pH 4.5: qHTS Assay for Inhibitors of Human alpha-Galactosidase at pH 4.5; Alpha-galactosidase A (Homo sapiens), P06280; purified enzyme, 4-MU-alpha-Gal fluorescence, pH 4.5; activity change, negative = inhibition, % at 105 µM; 230,000 tested, under 10 active; AID 1467, 2008; inconclusive = small, poorly fitted or top-dose-only inhibition, or a rising curve; inactive = flat fitted curve, though single readings scatter; no compound was filed as active;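 also: 0% = full activity with enzyme and -100% = basal without enzyme; dose as in the result columns while the protocol names 77 µM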
Target sequence (P06280 whole entry, looked up): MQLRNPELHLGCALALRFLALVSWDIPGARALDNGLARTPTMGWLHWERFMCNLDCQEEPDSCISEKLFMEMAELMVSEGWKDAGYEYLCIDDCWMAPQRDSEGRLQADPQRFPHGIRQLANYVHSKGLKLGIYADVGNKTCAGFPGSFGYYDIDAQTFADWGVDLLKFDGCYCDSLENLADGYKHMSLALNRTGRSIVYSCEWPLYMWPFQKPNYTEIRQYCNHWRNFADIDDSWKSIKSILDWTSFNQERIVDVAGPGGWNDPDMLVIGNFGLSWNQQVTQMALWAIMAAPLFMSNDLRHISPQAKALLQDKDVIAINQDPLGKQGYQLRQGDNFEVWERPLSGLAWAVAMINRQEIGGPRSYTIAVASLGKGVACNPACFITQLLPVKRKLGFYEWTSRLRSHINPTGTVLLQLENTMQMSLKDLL
Numbers without * were called inactive; & = joins results of further samples. Some of the compounds tested (hit frequency here may not be typical).

Start of the listing, in advance:
SMILES | GLA inh pH 4.5
CC(=O)N[C@@H](c1ccccc1)[C@]1(C)C[C@H]1[C@@H](C)C(=O)Nc1ccc2ccccc2c1 | 3
C[C@H](NC(=O)/C(C#N)=C/c1ccc(O)c(O)c1)c1ccccc1 | -6&-20
CCCCC/C=C\C/C=C\C/C=C\CCCCCCC(=O)NCCc1ccc(O)c(O)c1 | 1
CCC1=C2CC[C@H]3C(=O)N(c4ccccc4)C(=O)[C@H]3[C@H]2[C@@]2(Cc3ccccc3)C(=NCCOC)OC(=O)N2C1=O | 1
O=P(O)(O)O[C@@H]1[C@H](O)[C@H](O)[C@@H](OP(=O)(O)O)[C@H](OP(=O)(O)O)[C@H]1O | -7
COC(=O)CCC(=O)OC1(C)C(=O)C=C2C=C(c3ccc(C#N)cc3)OC=C2C1=O (centres undefined) | -7&1
O=C(O)CCC(=O)OC[C@@H](NC(=O)C(Cl)Cl)C(O)c1ccc([N+](=O)[O-])cc1 (some centres undefined) | 9
C=C1CCC2C(CC2(C)C)C(=O)CCC1O (centres undefined) | -3
COC(=O)[C@@]1(Cc2ccc(OC)cc2)[C@H]2c3cc(C(=O)N(C)C)n(Cc4ccc(C)o4)c3C[C@H]2CN1C(=O)c1ccccc1 | -6
C[C@H]1Cc2c(-c3ccccc3)nc3c(c2CO1)CN(C(=O)Nc1cccc(C#N)c1)CC3 | 6
CCOC(=O)C1=C(c2ccccc2)c2cc(OC)ccc2OC1C(=O)OCC (centres undefined) | -14
CC(C)=CCc1c(O)cc(C)oc1=O | 8

Main list, repeating the preview:
SMILES | GLA inh pH 4.5
CC(=O)N[C@@H](c1ccccc1)[C@]1(C)C[C@H]1[C@@H](C)C(=O)Nc1ccc2ccccc2c1 | 3
C[C@H](NC(=O)/C(C#N)=C/c1ccc(O)c(O)c1)c1ccccc1 | -6&-20
CCCCC/C=C\C/C=C\C/C=C\CCCCCCC(=O)NCCc1ccc(O)c(O)c1 | 1
CCC1=C2CC[C@H]3C(=O)N(c4ccccc4)C(=O)[C@H]3[C@H]2[C@@]2(Cc3ccccc3)C(=NCCOC)OC(=O)N2C1=O | 1
O=P(O)(O)O[C@@H]1[C@H](O)[C@H](O)[C@@H](OP(=O)(O)O)[C@H](OP(=O)(O)O)[C@H]1O | -7
COC(=O)CCC(=O)OC1(C)C(=O)C=C2C=C(c3ccc(C#N)cc3)OC=C2C1=O (centres undefined) | -7&1
O=C(O)CCC(=O)OC[C@@H](NC(=O)C(Cl)Cl)C(O)c1ccc([N+](=O)[O-])cc1 (some centres undefined) | 9
C=C1CCC2C(CC2(C)C)C(=O)CCC1O (centres undefined) | -3
COC(=O)[C@@]1(Cc2ccc(OC)cc2)[C@H]2c3cc(C(=O)N(C)C)n(Cc4ccc(C)o4)c3C[C@H]2CN1C(=O)c1ccccc1 | -6
C[C@H]1Cc2c(-c3ccccc3)nc3c(c2CO1)CN(C(=O)Nc1cccc(C#N)c1)CC3 | 6
CCOC(=O)C1=C(c2ccccc2)c2cc(OC)ccc2OC1C(=O)OCC (centres undefined) | -14
CC(C)=CCc1c(O)cc(C)oc1=O | 8
CC(=O)[C@@]1(O)CC[C@H]2[C@H]3C[C@@H](C)C4=CC(=O)C=C[C@]4(C)[C@@]3(F)[C@@H](O)C[C@]21C | 7
COc1ccc2[nH]cc(CCNc3nc(-c4cccc(NS(C)(=O)=O)c4)nc4ccccc34)c2c1 | -10
CC(C)(C)NC(=O)C(c1ccc(I)cc1)N(CCN1CCOCC1)C(=O)CCCNC(=O)c1ccccc1 (centres undefined) | -1
CC(C)C[C@@H](CC(=O)N[C@@H](CCC(=O)O)CC(=O)O)NC(=O)[C@@H]1CNCC[C@H]1NC(=O)C[C@@H](NC(=O)C[C@H](Cc1ccccc1)NC(=O)[C@@H]1CCCC[C@H]1N)C(C)C | 0
O=C(O)COc1cccc(-c2ocnc2-c2nc(-c3ccccc3)c(-c3ccccc3)o2)c1 | 11
COC(=O)NC(CCc1ccccc1)C(C(C)=O)C(=O)OC (centres undefined) | -5
CC(C)=CCc1c(O)cc2oc(C)cc(=O)c2c1O | 2
CC(C)[C@@H](CC(=O)N[C@@H]1CCCC[C@H]1C(=O)N[C@H](CC(=O)N[C@@H](CCC(=O)O)CC(=O)O)Cc1ccccc1)NC(=O)C[C@H](Cc1ccccc1)NC(=O)[C@@H]1CCCC[C@H]1N | -3
Clc1ccc2c(c1)N=C(N1CCNCC1)c1ccccc1N2 | 0
COc1ccc(C(C)=O)c(O)c1 | 17
COc1c(O)cc2c(=O)oc3c(OC)c(O)cc4c(=O)oc1c2c34 | -1
CC(=O)/C(C)=N\O | -5
CC(C)C1=CC2=CC[C@@H]3[C@](C)(CO)CCC[C@]3(C)C2CC1 (some centres undefined) | -12
CC(C)C[C@@H](CC(=O)N[C@@H](CCC(=O)O)CC(=O)O)NC(=O)[C@@H]1CNCC[C@H]1NC(=O)C[C@H](CCCN)NC(=O)C[C@H](Cc1ccccc1)NC(=O)[C@@H]1CCCC[C@H]1N | 0
OCC1O[C@H](O[C@H]2C(O)C(O)C(O)O[C@@H]2CO)C(O)C(O)C1O (some centres undefined) | -5
CCCCC[C@H](O)/C=C/[C@@H]1[C@@H](C/C=C\CCCC(=O)O)[C@H](O)C[C@H]1O | -12
COC(=O)C1=C(C(=O)OC)[C@@H]2Nc3ccccc3[C@@]23C[C@@H](C(=O)OC)N(S(=O)(=O)c2cccs2)C3=N1 | 5
Cc1cccc(/C=C/c2ccccc2)n1 | 2
COC(=O)[C@@]1(Cc2ccc(F)cc2)[C@H]2c3cc(C(=O)N4CCCC4)n(Cc4ccccc4)c3C[C@H]2CN1C(=O)c1ccccc1 | 8
C[C@H](CCC(=O)NCC(=O)O)[C@H]1CC[C@H]2[C@H]3[C@@H](C[C@@H](O)[C@]12C)[C@]1(C)CC[C@H](O)C[C@@H]1C[C@@H]3O | 7
CN(C)c1ccc(O)c2c1C[C@H]1C[C@H]3[C@@H](N(C)C)C(=O)C(C(N)=O)=C(O)[C@]3(O)C(=O)C1=C2O | -6
C[C@@]1(C2CCCC2)Cc2cc(OCC(=O)O)c(Cl)c(Cl)c2C1=O | -3
NCCC[C@@H](CC(=O)N[C@@H]1CCCC[C@H]1C(=O)N[C@H](CC(=O)N[C@@H](CCC(=O)O)CC(=O)O)Cc1ccccc1)NC(=O)C[C@H](Cc1c[nH]c2ccccc12)NC(=O)[C@@H]1CCCC[C@H]1N | 0
COC(=O)c1ccc(CN2[C@@H]3C[C@@H](O)CC[C@@H]3C[C@H]2C(=O)OC)cc1 | -8
Cc1ccccc1C1CC(=O)Oc2ccc(O)cc21 (centres undefined) | -7
N#Cc1c(-c2ccccc2)no[n+]1[O-] | -1
OCCN1CCN(CC/C=C2\c3ccccc3Sc3ccc(C(F)(F)F)cc32)CC1 | -6
N#C[C@H](Cc1ccc(O)cc1)c1ccc(O)cc1 | 3
OC[C@H]1O[C@@H](n2cnc3c(NCCc4ccccc4)ncnc32)[C@H](O)[C@H]1O | 4
CCC1(C)CC(=O)NC1=O (centres undefined) | -10&-11
CCN1CCCC1Cn1c(-c2ccccc2)nc2c(N(CCOC)CCOC)nc(C)nc21 (centres undefined) | -16
CCOC(=O)c1c(C)cc(O)c(C)c1O | 0
c1ccc2c(c1)CCC[C@@H]2C1=NCCN1 | 2
CCCCC[C@H](O)/C=C/[C@@H]1[C@H](C/C=C\CCCC(=O)O)[C@@H](O)C[C@H]1O | -1
N[C@@H](CCCC(=O)O)C(=O)O | -9
CN(C)Cc1ccccc1-c1nccc(N(C)C)n1 | 5
CN(C)Cc1ccccc1-c1nc(N(C)Cc2ccco2)c2ccccc2n1 | 0
CCCCCCCCC#CCC#CCC#CCCCC(=O)O | -10
CCOC(=O)CCCNC(=O)N1CCc2nc(-c3ccccc3)c3c(c2C1)CO[C@@H](C)C3 | 7
CCCCCCCCCCCCCCCC(=O)O[C@H](CC(=O)O)C[N+](C)(C)C | -11
CC(=O)O[C@@]1(C(C)=O)CCC2C3CC(C)C4=CC(=O)CC[C@@]4(C)C3CC[C@]21C (some centres undefined) | 2
C=C1CCC(OC(C)=O)/C(C)=C/CC2[C@H]1CC2(C)C (some centres undefined) | 4
CCCCCCCCCCCCC[N+](C)(C)Cc1ccccc1 | -4
C=C[C@H](N)CCC(=O)O | 0&3
COc1ccc2c(c1)c(CC(=O)N1CCOCC1)c(C)n2C(=O)c1ccc(Cl)cc1 | -7&4&-27
CCOC(=O)CNc1oc(-c2ccccc2)nc1-c1ccccc1 | -1
C[C@@H](C(=O)Nc1ccc2ccccc2c1)[C@H]1C[C@]1(C)[C@H](NC(=O)Oc1ccc(F)cc1)c1ccccc1 | -5
CC(=O)O[C@](C)(CCC=C(C)C)C1CC=C(C)CC1 (some centres undefined) | 3
(further entries)
SMILES | GLA inh pH 4.5
C[C@]12CCC(=O)C=C1CCC1C2C(=O)C[C@]2(C)C1CC[C@]2(O)C(=O)CO (some centres undefined) | 1
CC(=O)Oc1ccc2c(c1)CCC1C2CC[C@@]2(C)C1CC(OC(C)=O)C2OC(C)=O (some centres undefined) | 2
CCCC[C@@H]1C[C@H]1C(NC(=O)c1ccco1)c1ccccc1 (some centres undefined) | -3
CCCCCCCCCCCCCCCC(=O)NC(C)C | 8
Cc1noc(C)c1-c1cc(NC2CC2)ncn1 | -4
O=C(/C=C/c1ccccc1)NC(NC(=S)Nc1cccc2cccnc12)C(Cl)(Cl)Cl (centres undefined) | -2
CCCCCCCCCCCCOCCOCCOCCOCCO | -5
C[C@]12CCC3c4ccc(O)cc4CCC3C1CCC2OC(=O)CCC1CCCC1 (some centres undefined) | -7
COc1ccc(/C=C/C(=O)c2ccc(O)cc2O)cc1OC | -2
CCN(CC)CCCn1c(-c2ccccc2)nc2c(NCCOC)nc(C)nc21 | -2
CCC(=O)OC1(C)C(=O)C=C2C=C(CCCCNC(=O)OC(C)(C)C)OC=C2C1=O (centres undefined) | -5
NC1(C(=O)O)CCCC1 | 1
COc1ccccc1-c1cncnc1Nc1ccc(F)cc1 | -2
COC(=O)C/C=C/[C@@H](C)[C@H](O)c1ccccc1Br | -5
C[C@@H]1CC[C@H]2[C@H](C)[C@H]3CC[C@H]4C5[C@@H](O)CC6=CC(=O)CC[C@]6(C)[C@H]5C[C@H]4C3C(=O)N2C1 (some centres undefined) | 1
CCC/C=C(\CCC)C(NC(=O)c1ccccc1)c1ccccc1 (centres undefined) | 3
CC(C)Oc1ccc2c(=O)cc(-c3ccccc3)oc2c1 | -4
CC(C)C[C@@H](CC(=O)N[C@H](CC(=O)N[C@@H]1CCNC[C@H]1C(=O)N[C@H](CC(=O)N[C@@H](CCC(=O)O)CC(=O)O)Cc1c[nH]c2ccccc12)C(C)C)NC(=O)[C@@H]1CNCC[C@H]1N | -16
Cc1ccc(CNC(=O)[C@H](C)[C@@H]2C[C@@]2(C)[C@@H](NC(=O)OCc2ccccc2)c2ccccc2)c(F)c1F | -8
CS(=O)(=O)c1ccc(CNC(=O)[C@H]2C[C@@H]2[C@H](NP(=O)(c2ccccc2)c2ccccc2)c2ccccc2)cc1 | -1
COC(=O)[C@@]1(Cc2ccc(OC)cc2)[C@H]2c3cc(C(=O)N(C)C)n(Cc4cc(F)c(F)c(F)c4)c3C[C@H]2CN1C(=O)c1ccccc1 | -7
COC(=O)[C@@]1(Cc2ccc(F)cc2)[C@H]2c3cc(C(=O)N4CCCC4)n(Cc4ccc(Cl)c(C(F)(F)F)c4)c3C[C@H]2CN1C(=O)c1ccccc1 | -11
CC[C@H]1C2=C3C(CC[C@H]4C(OC)OC[C@](C)([C@@H]34)N(C(=O)OC(C)(C)C)C2)C(CO)C1CO (some centres undefined) | -4
COc1ccc(C2OC3C(CO)OC(n4cnc5c(=O)[nH]c(N)nc54)C3O2)cc1 (centres undefined) | 0
CCCCc1cc2c(cn1)=C(OC(=O)CCC(=O)OC)C(C)(OC(=O)CC)C(=O)C=2 (centres undefined) | 9
O=[N+]([O-])c1ccc(-c2nc(-c3ccc(F)cc3)c(-c3ccncc3)[nH]2)cc1 | -22
CCCCc1nc2c(c3c1C[C@H](C)OC3)CN(C(=O)Nc1cccc(C#N)c1)CC2 | -2
CC(C)(C)OC(=O)NCCCC1=CC2=CC(=O)C(C)(OC(=O)c3cnc4ccccc4n3)C(=O)C2=CO1 (centres undefined) | -8
CC(Nc1oc(-c2ccccc2)nc1-c1ccccc1)c1ccccc1 (centres undefined) | 1&-13
CCN(CC)CCCn1c(-c2ccccc2)nc2c(N3CCOCC3)nc(C)nc21 | -1
COC(=O)[C@@]1(Cc2ccccc2)[C@H]2c3cc(C(=O)N4CCCC4)n(CCO)c3C[C@H]2CN1C(=O)c1ccccc1 | 4
CC[C@H]1OC(=O)[C@H](C)[C@@H](O[C@H]2C[C@@](C)(OC)[C@@H](O)[C@H](C)O2)C(C)[C@@H](O[C@@H]2O[C@H](C)C[C@H](N(C)C)[C@@H]2O)[C@](C)(OC)C[C@@H](C)C(=O)[C@H](C)[C@@H](O)[C@]1(C)O (some centres undefined) | -12
CCC(=O)OC1C2CC3=C4CC(=O)OC(c5ccoc5)[C@]4(C)CCC3[C@@](C)(C2=O)C(CC(=O)OC)C1(C)C (some centres undefined) | 1
CCCCC/C=C\C/C=C\CCCCCCCC(=O)O | -5
C=CCOC(=O)N[C@@H](CCc1ccccc1)C(C(C)=O)C(C)=O | 1
C=C1CCC2[C@](C)(CO)C(O)CC[C@]2(C)C1C/C=C1/C(=O)OCC1O (some centres undefined) | -3
O=C1C=CC2(OCCCO2)C(Br)=C1CO | 0
CC1(C)OC2CO[C@]3(COS(N)(=O)=O)OC(C)(C)OC3C2O1 (some centres undefined) | 0
CC[C@@H]1O[C@]2(C=C[C@@H]1C)C[C@H]1C[C@H](CC=C(C)[C@@H](O[C@@H]3C[C@H](OC)[C@H](O[C@@H]4C[C@H](OC)[C@H](O)[C@H](C)O4)[C@H](C)O3)[C@@H](C)C=CC=C3CO[C@@H]4[C@@H](O)C(C)=C[C@@H](C(=O)O1)[C@]34O)O2 | -10
